Ecoli growth – blocks Escherichia coli growth. OD600 absorbance (test concentration not listed). 330,000 tested, 0.21% active. OD600, 23 h; active compounds read low;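 active means OD600 absorbance below the run mean of sample wells minus 3.6 SD, in any replicate, cut at about 0.56 in these data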;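 further: stock transfer was 300 nL into about 60 µL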
UCH37 inh – blocks the human deubiquitinase UCH37. Q9Y5K5. inhibition, % (no concentration beside the values). 330,000 tested, 0.33% active. AID 588478. purified proteasome/UCH37, Ub-AMC cleavage fluorescence;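 active means mean of two replicates above 20%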;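 further: 0% = compound-free wells with enzyme and 100% = wells lacking proteasome; stock transfer was 100 nL into about 20 µL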
Target sequence (Q9Y5K5 whole entry, looked up): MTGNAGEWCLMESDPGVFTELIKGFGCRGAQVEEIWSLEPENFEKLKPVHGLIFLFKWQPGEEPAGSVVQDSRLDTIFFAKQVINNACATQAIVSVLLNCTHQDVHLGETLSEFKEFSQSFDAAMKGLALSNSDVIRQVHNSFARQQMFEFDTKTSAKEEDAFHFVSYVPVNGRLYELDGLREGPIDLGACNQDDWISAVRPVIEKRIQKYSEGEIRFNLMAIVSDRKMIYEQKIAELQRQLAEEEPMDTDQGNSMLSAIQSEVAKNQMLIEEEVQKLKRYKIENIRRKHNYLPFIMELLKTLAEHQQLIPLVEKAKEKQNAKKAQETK
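Material: Human UCH37 enzyme supplied as purified proteasome complex | Schedule: 30 min preincubation with enzyme, 25 min cleavage at room temperature | Detection: AMC fluorescence 355/460 nm | Measure: % inhibition of Ub-AMC cleavage fluorescence | Controls: Wells without proteasome as full block, compound-free enzyme plus substrate as uninhibited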
An asterisk follows results filed as active. An excerpt, so the mix of outcomes need not match the whole.

SMILES | Ecoli growth | UCH37 inh
Cn1c(NN=Cc2c[nH]c3ccccc23)nc2ccccc21 | 0.68 | 3.4
Cc1ccc(-n2c(C)cc(C=NNc3ccc([N+](=O)[O-])cn3)c2C)c(C)c1 | 0.71 | 3.2
COc1ccc(C=NNc2ncccc2[N+](=O)[O-])c(OC)c1 | 0.72 | 15
CON=C(CS(=O)(=O)c1ccc(Br)cc1)c1ccc(OC)cc1 | 0.73 | 1.5
CC(=NNC(=O)c1ccoc1C)c1ccc(N2CCOCC2)cc1 | 0.63 | 2.6
O=C(NN=Cc1cc([N+](=O)[O-])ccc1Cl)c1cc(-c2ccccc2)nc2ccccc12 | 0.72 | 5.0
CCOC(=O)c1sc(N=CN(C)C)c(C(=O)OCC)c1C | 0.72 | 12
CCn1ncc(C=NNC(=O)c2cc(-c3ccc(C)cc3C)nc3ccccc23)c1C | 0.74 | -0.7
CC(=NNC(=O)c1ccc(COc2ccccc2)cc1)c1ccncc1 | 0.65 | 3.6
COC(=O)c1ccc(C=Nn2c(C)nnc2C)cc1 | 0.71 | -1.4
COc1cc(C=NN2CCN(c3ccccc3OC)CC2)ccc1O | 0.72 | 3.6
O=C(CSc1n[nH]c(=O)[nH]c1=O)NN=C/C=C/c1ccccc1 | 0.67 | 5.7
CCN(CC)c1ccc(C=NNC(=O)c2cnccn2)cc1 | 0.67 | 15
Cc1nonc1C(=O)NN=Cc1ccncc1 | 0.67 | 2.1
C(=NNc1ncnc2nc[nH]c12)c1cccs1 | 0.62 | 9.9
CCOc1ccc(C=c2sc3nc(-c4ccco4)nn3c2=O)cc1OCC | 0.8 | 6.6
COc1ccc(C=NNC(=O)CC2N=C(Cc3ccccc3)NNC2=O)cc1OC (stereo not given) | 0.69 | 5.0
COC(=O)c1ccc(COc2ccc(C=NNC(N)=S)cc2)o1 | 0.63 | 8.2
CCN(CC)c1ccc(C=NNc2nc3ccccc3[nH]2)cc1 | 0.58 | -34
CC(=O)Nc1ccc(C(C)=NNC(=O)CN(c2ccccc2Br)S(C)(=O)=O)cc1 | 0.66 | 1.8
CN(C)c1ccc(-n2cccc2C=Nn2cnnc2)cc1 | 0.65 | 5.4
CCOc1cc(C=Nn2c(C)nc3sc(C)c(C)c3c2=O)ccc1O | 0.76 | 7.7
C#CCOc1ccc(Br)cc1C=NO | 0.71 | 1.1
COc1ccc(C=NNc2ncnc3c2[nH]c2ccccc23)c(OC)c1OC | 0.67 | -19
ON=C1CCC(=NO)c2nn(-c3ccc(Cl)cc3Cl)nc21 | 0.67 | 0.1

Seven entries out of the list, ordered by length of the SMILES, low to high.
SMILES | Ecoli growth | UCH37 inh
C#CCOc1ccc(Br)cc1C=NO | 0.71 | 1.1
C(=NNc1ncnc2nc[nH]c12)c1cccs1 | 0.62 | 9.9
CCOC(=O)c1sc(N=CN(C)C)c(C(=O)OCC)c1C | 0.72 | 12
CC(=NNC(=O)c1ccc(COc2ccccc2)cc1)c1ccncc1 | 0.65 | 3.6
CCOc1ccc(C=c2sc3nc(-c4ccco4)nn3c2=O)cc1OCC | 0.8 | 6.6
Cc1ccc(-n2c(C)cc(C=NNc3ccc([N+](=O)[O-])cn3)c2C)c(C)c1 | 0.71 | 3.2
O=C(NN=Cc1cc([N+](=O)[O-])ccc1Cl)c1cc(-c2ccccc2)nc2ccccc12 | 0.72 | 5.0

Further structures
SMILES | Ecoli growth | UCH37 inh
COc1cc(C=NNC(=O)c2cccc(S(=O)(=O)N3CCCC3)c2)ccc1O | 0.67 | 9.3
Cc1ccc(C=NNc2cn[nH]c(=O)n2)o1 | 0.69 | 16
COc1ccccc1C=NNC(=O)C(NC(=O)c1ccccc1)=C(C)C | 0.66 | 2.2
CC(=NNC(=O)Cc1cccs1)c1ccco1 | 0.7 | 6.6
CC1CCCC(C)N1N=Cc1ccc(N(C)C)cc1 (stereo not given) | 0.67 | -0.8
CCOc1ccc(C=NNC(=S)NC2CC3C=CC2C3)cc1 (stereo not given) | 0.64 | 2.9
O=C(NN=Cc1sc(N2CCCCC2)nc1-c1cccs1)C1CC1 | 0.71 | -4.9
CC(=NNc1nc(C)cc(C)n1)c1ccc(Br)cc1 | 0.73 | 6.0
Cc1cc([N+](=O)[O-])cc(C)c1OCC(=O)NN=Cc1ccc(OC(=O)c2ccccc2Br)cc1 | 0.71 | 0.5
COc1cc(C=NNS(=O)(=O)c2ccc(C)c([N+](=O)[O-])c2)cc([N+](=O)[O-])c1O | 0.7 | 15
COc1cccc(C=NNc2ccc(Cl)nn2)c1 | 0.66 | -1.5
NC(=O)c1ccc(C=NO)[n+](Cc2ccccc2)c1 | 0.68 | 9.3
Cn1ccsc1=NS(=O)(=O)c1ccc(C(C)(C)C)cc1 | 0.71 | 4.0
CCN(CC)c1ccc(C=NNC(=O)c2cnccn2)c(O)c1 | 0.68 | 7.0
CCCN1C(=O)C(O)(CC(C)=NO)c2ccccc21 (stereo not given) | 0.71 | -0.7
COc1cc(C=NNC(=O)c2cc(-c3ccccc3OC(C)C)nc3ccccc23)ccc1O | 0.71 | 0.3
NC(=O)NN=CCCc1ccccc1 | 0.63 | 5.3
CC(C)(C)NC(=O)C(=O)NN=Cc1ccc(Br)cc1 | 0.76 | -4.3
CCOC(=O)c1ccc(-c2ccc(C=NNC(=O)c3cncc(Br)c3)o2)cc1 | 0.68 | -33
COc1ccc(C=NNC(=O)c2ccncc2)cc1Cn1nc([N+](=O)[O-])c(Br)c1C | 0.74 | 1.4
CC(=NNC(=O)c1cccc(Br)c1)C1CC2CCC1C2 (stereo not given) | 0.73 | 5.4
O=C(O)c1cc(-c2ccc(C=NN3C(=O)C4C5C=CC(CC5)C4C3=O)o2)ccc1Cl (stereo not given) | 0.69 | 16
O=C(NN=Cc1cccc([N+](=O)[O-])c1)c1cc(-c2ccc3c(c2)OCO3)n[nH]1 | 0.7 | 7.4
CC(C)CNC(=O)CC(=O)NN=Cc1cccs1 | 0.71 | 4.0
S=c1[nH]nc(COc2ccccc2)n1N=Cc1ccc(Cl)cc1 | 0.67 | 1.1
SMILES | Ecoli growth | UCH37 inh
COc1cccc(C(=O)C[n+]2ccccc2C=NO)c1 | 0.69 | 6.6
O=C(CNC(=O)c1ccncc1)NN=Cc1cc(Br)ccc1O | 0.69 | -2.5
CCCOc1ccc(C=NNc2ccccc2[N+](=O)[O-])c(OCCC)c1 | 0.74 | 15
O=C(NN=Cc1ccccn1)c1ccccc1 | 0.65 | 2.8
Cc1ccc(C=NNC(=O)c2ccco2)s1 | 0.68 | 15
COc1ccc(C=NNc2nncc3ccccc23)c(OC)c1 | 0.69 | 4.7
Cc1ccc2nc(C)cc(C(=O)NN=Cc3ccncc3)c2c1 | 0.72 | 2.7
O=C(NN=Cc1cccnc1)C1c2ccccc2Oc2ccccc21 | 0.61 | 2.9
CC(=O)NN=Cc1cccc(OC/C=C/c2ccccc2)c1 | 0.71 | -0.9
COc1cc(OC)c(C(=O)NN=Cc2ccoc2)cc1OC | 0.64 | 4.7
O=C(CCNC(=O)c1ccc([N+](=O)[O-])cc1)NN=Cc1ccc(F)cc1 | 0.65 | -0.3
O=C1CSC(=NN=Cc2ccco2)N1Cc1ccc(F)cc1 | 0.65 | 4.0
COc1cc(C=NN2C(=O)C3C4C=CC(CC4)C3C2=O)ccc1O (stereo not given) | 0.66 | 4.8
COc1cc(C=Nn2nnnc2N)ccc1OC(C)=O | 0.65 | 3.7
COc1ccccc1N1CCN(N=Cc2cc([N+](=O)[O-])ccc2Cl)CC1 | 0.71 | 5.8
COC(=O)NN=Cc1cc(Cl)c(OCc2ccccc2F)c(OC)c1 | 0.65 | 8.2
S=c1[nH]nc(-c2cc(-c3ccccc3)n[nH]2)n1N=Cc1cccc(Cl)c1 | 0.69 | 2.6
Cc1ccc(-c2n[nH]c(=S)n2N=Cc2ccncc2)cc1 | 0.68 | 4.8
CC(=O)Nc1ccc(C=NNC(=O)c2cc3cc(C)ccc3nc2C)cc1 | 0.64 | 0.2
Cc1ccc(C=Nn2c(C)nc3ccccc3c2=O)o1 | 0.69 | 7.4
CC(=NNC(=O)c1nnn(-c2nonc2N)c1-c1cccs1)c1ccc(C)cc1 | 0.68 | -64
CSc1ccc(NN=C(C#N)S(=O)(=O)C(C)(C)C)cc1 | 0.6 | 11
CC(=NNS(=O)(=O)c1ccc(C)cc1)c1ccc2c(c1)OCO2 | 0.71 | 6.1
Cc1ccc(S(=O)(=O)N=C(c2ccccc2)N(C)S(=O)(=O)c2ccc(C)cc2)cc1 | 0.7 | 4.6
O=C(NN=C/C=C/c1ccc(Br)cc1)C(O)c1ccccc1 (stereo not given) | 0.72 | 5.0
SMILES | Ecoli growth | UCH37 inh
CC(CC(=O)Nc1ccc(OCc2ccccc2)cc1)=NNC(=O)C(=O)Nc1ccc(C)c(Cl)c1 | 0.8 | 2.2
Cc1cc(C)c([N+](=O)[O-])cc1-c1ccc(C=NNC(=O)c2nonc2N)o1 | 0.73 | -3.4
CC(=NNC(=O)CNC(=O)COc1cccc(C)c1)c1ccco1 | 0.65 | 4.9
Nc1nnn(CC(=O)NN=Cc2ccccc2Cl)n1 | 0.63 | 0.6
Cc1ccsc1C=NNc1nc2ccccc2[nH]1 | 0.55 | 0.5
CN1CCN(c2c(C=NO)c3ccccc3n2C)CC1 | 0.67 | 1.4
Cc1ccc2nc(C)c(C(=O)NN=Cc3ccc(N4CCOCC4)cc3)cc2c1 | 0.72 | -49
C(=NNc1ccccc1)c1nc2ccccc2s1 | 0.69 | 0.4
CC(=NNS(=O)(=O)c1ccc([N+](=O)[O-])cc1)c1ccc(NC(=O)c2ccco2)cc1 | 0.71 | 6.6
Cc1ccc(CN2CCN(N=C/C=C/c3ccccc3)CC2)cc1 | 0.65 | 4.7
O=C1C(Cc2cccc([N+](=O)[O-])c2)SC(=NN=Cc2ccco2)N1c1ccccc1 (stereo not given) | 0.7 | 2.0
Fc1ccccc1COc1ccc(C=NNC(=S)NCc2ccccc2)cc1 | 0.69 | 6.5
C=CCNC(=S)NN=C(C)c1ccccn1 | 0.53* | 4.2
O=C(CNc1ccc2ccccc2c1)NN=Cc1ccccn1 | 0.7 | -0.6
CN(C)C=Nc1ncc(C(=O)OC(C)(C)C)s1 | 0.67 | 9.0
O=C(CCN1CCCCC1)NN=Cc1ccc(Br)cc1 | 0.71 | 2.6
CC(=NNC(=O)c1ccoc1C)c1ccc(NC(=O)C2CCCC2)cc1 | 0.69 | 0.1
CCC(=NNC(=O)c1ccc(-c2ccccc2)cc1)C12CC3CC(CC(C3)C1)C2 | 0.75 | 2.0
COc1ccc(C(C)=NNC(=O)c2ccc(-c3ccccc3)cc2)c(F)c1 | 0.7 | -3.8
COc1cc(C=NNC(=O)C(=O)NCC2CCCO2)cc(Cl)c1O (stereo not given) | 0.71 | 10
Cc1cccc(C)c1-n1c(C)cc(C=NNC(N)=S)c1C | 0.72 | 1.4
CCOc1cc(C=NNC(=O)OC)ccc1OCCSc1ccc(Cl)cc1 | 0.69 | 1.0
O=C(CNc1ccc(F)cc1)NN=CC1CC=CCC1 (stereo not given) | 0.66 | -0.5
O=C(COc1ccc(C=NNS(=O)(=O)c2ccccc2)cc1)NCc1ccccc1 | 0.67 | -2.8
COc1cccc(C=NNC(=O)CN2CC(c3ccccc3)CC2=O)c1OC (stereo not given) | 0.72 | -3.8
SMILES | Ecoli growth | UCH37 inh
CC(=NNC(=O)c1ccc2c(c1)OCCO2)c1ccccc1 | 0.68 | 4.6
C(=Nn1cnnc1)c1cccc(OCCOc2ccccc2)c1 | 0.71 | 4.5
CC(C)(C)c1ccc(C=NNC(=O)C(=O)NCCCN2CCOCC2)cc1 | 0.68 | 1.7
O=C(Cc1ccc(O)cc1)NN=Cc1cccs1 | 0.72 | 1.8
O=S1(=O)C[C@@H]2N=C(NN=Cc3ccccc3)S[C@@H]2C1 | 0.71 | 8.5
CCN(CC)c1ccc(C=NNC(=O)c2ccco2)cc1 | 0.68 | -9.6
CC1C2CC(CC2=NNC(=O)c2cccs2)C1(C)C (stereo not given) | 0.68 | 0.6
O=S(=O)(Oc1ccccc1C=Nn1cnnc1)c1ccccc1 | 0.69 | -0.3
CC1=CC(=NOS(=O)(=O)c2ccccc2)C(C(C)C)=CC1=O | 0.7 | 3.0
COC(=O)c1ccc(CON=Cc2cccc([N+](=O)[O-])c2)cc1 | 0.67 | 3.8
CCOc1ccc(C=Nn2c(C3CCCCC3)n[nH]c2=S)cc1 | 0.67 | 4.2
CSc1ccc(C=NNC(=O)CNc2cccc3ccccc23)cc1 | 0.76 | -6.9
CC(/C=C/c1ccccc1)=NNC(=O)c1ccc(Br)cc1 | 0.67 | 1.8
CN(C)Cc1c(C(=O)NN=Cc2cccs2)nnn1-c1nonc1N | 0.68 | 8.4
C(=NN1CCOCC1)c1cn(-c2ccccc2)nc1-c1ccccc1 | 0.66 | 1.4
COc1cc(C=NNC(=O)c2cccnc2)ccc1OC(=O)c1ccc([N+](=O)[O-])cc1 | 0.7 | 7.2
CN(C)c1nc(NN=Cc2ccccc2O)nc(Nc2ccc(F)cc2)n1 | 0.72 | 5.8

Rewritten with values ahead of the structure: 4 of the compounds above
| Ecoli growth | UCH37 inh | Structure |
| --- | --- | --- |
| 0.71 | 4.5 | C(=Nn1cnnc1)c1cccc(OCCOc2ccccc2)c1 |
| 0.68 | 1.7 | CC(C)(C)c1ccc(C=NNC(=O)C(=O)NCCCN2CCOCC2)cc1 |
| 0.72 | 1.8 | O=C(Cc1ccc(O)cc1)NN=Cc1cccs1 |
| 0.71 | 8.5 | O=S1(=O)C[C@@H]2N=C(NN=Cc3ccccc3)S[C@@H]2C1 |

High-throughput results: PubChem, ICCB-Longwood Screening Facility, Harvard Medical School
